PDI turbidity = inhibitors of human PDI, primary screen, biochemical, turbidity, single point, plate reader. PDI insulin aggregation turbidity, A650, 90 min. AID 588391, 2011. inhibition, % at 10 µM. hit rate 0.052% among 350,000. Protein disulfide-isomerase (Homo sapiens), P07237;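 active means mean inhibition across replicates of 30% or more, whatever share of single replicates reach that level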;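 further: absorbance from insulin aggregation driven by PDI reduction with DTT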
CaV13 ICDI inh = Disruptors of the CACNA1D IQ motif to Ca2+-dependent inactivation inhibitor domain association, primary screening, Förster resonance energy transfer in intact living …; HEK cells, CFP/YFP FRET ICDI-IQ, plate reader, 10 min; percent FRET-ratio fall versus neutral wells; inhibition, % at 12.3 µM; hit rate 0.098% among 340,000; AID 743397;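 active means mean replicate inhibition of at least 30% and at least 1% of replicates passing that level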;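 further: 0% = median of the neutral control wells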
Granule exo inh = LAMP-1 surface exposure blockers, TALL-104 cells – cell-based, flow cytometry, MLPCN library, primary screen; hit rate 0.66% among 360,000; TALL-104 LAMP-1 surface exposure; cells stimulated with thapsigargin and PMA; AID 651702, 2012; inhibition, % at 10 µM;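 active means inhibition above about 55%, limit read from the data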
Cardio protect = cardioprotection against H2O2-induced cell death, primary screen, uHTS, H9c2 cells, ATPLite luminescence | hit rate 0.63% among 360,000 | protection from H2O2 cell death, % at 20 µM | AID 588492, 2011 | H9c2 cardiomyocytes, H2O2 injury protection, 2 h;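 active means compounds giving at least 50% protection of heart cells from peroxide-induced death in the single-dose screen, raw or plate-pattern-corrected value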;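 further: 0% = DMSO wells with peroxide and 100% = DMSO wells without peroxide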
ABCB6 inh MLPCN = ABCB6 transporter inhibitors, primary screen, K562-ABCB6 cells, flow cytometry, MLPCN library. ATP-binding cassette sub-family B member 6 (Homo sapiens), Q9NP58. K562-ABCB6 porphyrin accumulation, 1 h; hits give low values. fluorescence ratio to DMSO, % at 10 µM. hit rate 0.19% among 360,000. AID 602162, 2011;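 active means fluorescence ratio to DMSO below 75%, the collection mean minus 3 SD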;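 further: signal is porphyrin accumulated inside mitochondria; 100% equals median channel fluorescence of DMSO control wells; lower ratio means ABCB6 inhibition with less porphyrin fluorescence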
ABHD5 PLIN5 PPI = ABHD5-PLIN5 interaction inhibitors, primary screen, cell lysate, split luciferase complementation, luminescence; Perilipin-5 (Homo sapiens) + 1-acylglycerol-3-phosphate O-acyltransferase ABHD5 (Homo …; Split G. princeps luciferase complementation, 4 h; inhibition, % at 4 µM; hit rate 0.78% among 360,000;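 active means inhibition above the mean inhibition across every tested compound plus 3 SD, cut at about 22% in these data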;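 further: 0% = DMSO only wells and the 100% control is not disclosed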
An asterisk follows results filed as active; x = no result given; & = joins results of further samples.

cpd	Compound	Cardio protect	ABHD5 PLIN5 PPI	ABCB6 inh MLPCN
1	Cc1ccc(C)c(NC2=NCCCS2)c1	8	7	104
2	CNC(=O)c1cccn(Cc2ccc(C(F)(F)F)cc2)c1=O	0	-4	97
3	COC1=CC2[C@@H]3Cc4ccc(OC)c(O)c4[C@]2(CCN3C)CC1=O (some centres not stated)	10	6	107
4	O=c1[nH]c2ccccc2n1C1CCN(CCCC(c2ccc(F)cc2)c2ccc(F)cc2)CC1	-24	-5	89
5	CCCN(CCC)C1CCc2ccc(O)cc2C1 (configuration not stated)	5	2	102
6	COC1=C[C@@H]2[C@@H]3Cc4ccc(OC)c(O)c4[C@]2(CCN3C)CC1=O	24	-3	93
7	COc1cccc(C(=O)N2C[C@H]3C[C@@H](C2)c2cccc(=O)n2C3)c1	0	-1	101
8	CCN(CC)P(=O)(Oc1cccc(C)c1)N(CC)CC	1	-3	95
9	c1ccc2sc(C3CCCNC3)nc2c1 (configuration not stated)	-1	3	81
10	CC(C)C(O)(C(=O)OCC1=CCN2CCC(O)C12)C(C)O (configuration not stated)	4	-2	106
11	CC[C@@H](CO)NC(=O)[C@@H]1C=C2c3cccc4c3c(cn4C)C[C@H]2N(C)C1	-2&10	-7&-1	101&99
12	CC1=C(C(=O)Nc2ccccc2)SCCO1	-4	3	97
13	CNCC(O)c1cc(F)c(OCc2ccccc2)c(OCc2ccccc2)c1F (configuration not stated)	-12	2	97
14	CC12CCC(O)CC1CCC1C2CCC2(C)C(C(=O)CC(O)C(F)(F)F)CCC12 (configuration not stated)	-13	-10	100
15	S=C(NCCc1ccccc1)N1Cc2cc(N3CCOCC3)ccc2-n2nncc2C1	1	-1	97

cpd	CaV13 ICDI inh	Granule exo inh	PDI turbidity
1	x	-4	-3
2	-4	2	-8
3	-3	1	-3
4	-6	25	5
5	-4	0	0
6	-5	-1	3
7	x	-3	x
8	-1	0	-4
9	-5	2	-24
10	x	-5	x
11	-7&-6	0&2	-12&-5
12	-6	-10	19
13	-6	19	-1
14	-8	0	1
15	-7	-2	x

Filtered by structure, the entries above containing nitrogen in an aromatic ring.
cpd	Compound	Cardio protect	ABHD5 PLIN5 PPI	ABCB6 inh MLPCN
2	CNC(=O)c1cccn(Cc2ccc(C(F)(F)F)cc2)c1=O	0	-4	97
4	O=c1[nH]c2ccccc2n1C1CCN(CCCC(c2ccc(F)cc2)c2ccc(F)cc2)CC1	-24	-5	89
7	COc1cccc(C(=O)N2C[C@H]3C[C@@H](C2)c2cccc(=O)n2C3)c1	0	-1	101
9	c1ccc2sc(C3CCCNC3)nc2c1 (configuration not stated)	-1	3	81
11	CC[C@@H](CO)NC(=O)[C@@H]1C=C2c3cccc4c3c(cn4C)C[C@H]2N(C)C1	-2&10	-7&-1	101&99
15	S=C(NCCc1ccccc1)N1Cc2cc(N3CCOCC3)ccc2-n2nncc2C1	1	-1	97

cpd	CaV13 ICDI inh	Granule exo inh	PDI turbidity
2	-4	2	-8
4	-6	25	5
7	x	-3	x
9	-5	2	-24
11	-7&-6	0&2	-12&-5
15	-7	-2	x

Looked up one by one from the entries so far:
cpd	Compound	Cardio protect	ABHD5 PLIN5 PPI	ABCB6 inh MLPCN
5	CCCN(CCC)C1CCc2ccc(O)cc2C1 (configuration not stated)	5	2	102
1	Cc1ccc(C)c(NC2=NCCCS2)c1	8	7	104

cpd	CaV13 ICDI inh	Granule exo inh	PDI turbidity
5	-4	0	0
1	x	-4	-3

Bioassay records as filed in PubChem.

Not all compounds are listed. The share of hits here may be higher or lower than overall.
